# A1 inh – inhibitors of the anti-apoptotic protein A1, read as caspase activation. MEF A1-2A-BIM cells, Caspase-Glo 3/7 luminescence, 3 h; percent of clofoctol response, vehicle zero. caspase activation, % (concentration not given with the values). actives 0.066% (n = 330,000). AID 2462;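 active = over half of replicate activation scores above 10%, or exactly half above 10 with the replicate mean above 10; inconclusive = replicate mean below 10 yet half the replicates above 10; inactive = over half of replicates below 10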;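 also: wells of about 30 µL received 50 nL stock; many hits fall short of the cut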
# LANA-H2B inh – blocks KSHV LANA binding to histone H2A/H2B; actives 0.6% (n = 320,000); inhibition, % (concentration not given with the values); cell-free LANA-H2A/H2B peptide, fluorescence polarization; in the data active = inhibition mostly above about 10%, no sharp cut-off; inactive = mostly below about 6.7%;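 also: stock transfer was 7.5 nL into about 10 µL; 0% = median of vehicle wells and 100% = median of positive control wells; one replicate is shown; the record names a cut of 25% in any replicate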
# UCH37 DUB inh – human UCH37 deubiquitinating enzyme inhibition; purified proteasome/UCH37, Ub-AMC cleavage fluorescence; Q9Y5K5; inhibition, % (test concentration not listed); actives 0.33% (n = 330,000);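 active = mean of two replicates above 20%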;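 also: 0% = compound-free wells with enzyme and 100% = wells lacking proteasome; stock transfer was 100 nL into about 20 µL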
# Target sequence (Q9Y5K5 whole entry, looked up): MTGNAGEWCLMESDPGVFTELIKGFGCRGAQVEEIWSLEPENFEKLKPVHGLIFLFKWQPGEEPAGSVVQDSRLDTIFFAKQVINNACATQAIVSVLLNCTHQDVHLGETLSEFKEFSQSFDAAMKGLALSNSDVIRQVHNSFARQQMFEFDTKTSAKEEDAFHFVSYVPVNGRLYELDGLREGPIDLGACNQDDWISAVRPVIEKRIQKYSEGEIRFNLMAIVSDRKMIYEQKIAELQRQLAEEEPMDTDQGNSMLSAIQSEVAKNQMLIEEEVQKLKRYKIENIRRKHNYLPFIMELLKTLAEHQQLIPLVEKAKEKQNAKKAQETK
#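 Assay system: Proteasome-bound UCH37. Buffer or medium: pH 7.4 Tris-HCl (50 mM) with ovalbumin, ATP-MgCl2, DTT. Incubation: 30 min preincubation with enzyme, 25 min cleavage at room temperature. Measured by: fluorescence, ex 355 nm, em 460 nm. Read-out basis: percent inhibition. Control set: wells without proteasome as full block, compound-free enzyme plus substrate as uninhibited.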
# B2AR ag – activates human beta-2 adrenergic receptor causing internalization; Am2.2-beta2AR cells, FAP receptor internalization, flow cytometry; reference of the scale not given here; response, % (concentration not given with the values); actives 0.43% (n = 340,000); AID 504454; P07550;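 active = response above a set limit, near 3 SD of response in nonfluorescent compounds, cut at about 42% in these data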;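 also: stock transfer was 100 nL into about 11 µL; a reference agonist was the positive control; negative values mostly stem from fluorescent compounds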
# Target sequence (P07550 whole entry, looked up): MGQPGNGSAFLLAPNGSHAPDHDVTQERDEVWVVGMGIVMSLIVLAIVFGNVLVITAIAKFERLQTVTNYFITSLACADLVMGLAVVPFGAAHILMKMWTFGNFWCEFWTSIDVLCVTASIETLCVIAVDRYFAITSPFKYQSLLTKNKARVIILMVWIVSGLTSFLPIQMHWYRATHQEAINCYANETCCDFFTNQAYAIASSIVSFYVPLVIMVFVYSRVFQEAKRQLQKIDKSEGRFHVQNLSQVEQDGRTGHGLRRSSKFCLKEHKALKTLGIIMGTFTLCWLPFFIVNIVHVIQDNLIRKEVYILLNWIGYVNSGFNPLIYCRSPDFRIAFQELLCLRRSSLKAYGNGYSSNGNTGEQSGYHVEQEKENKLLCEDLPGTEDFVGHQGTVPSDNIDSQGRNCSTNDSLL
# HNF4A DNA FP – change in binding of human HNF4 alpha to DNA. P41235. HNF4a-FITC DNA binding, fluorescence polarization, 1 h. activity change, % at 10 µM. actives 0.3% (n = 360,000). AID 1224865; in the data active = activity change above about 30%, passing the limit was not always enough;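 also: controls were the assay level and a saturating level of protein; the project sought stronger binding though the title names inhibitors; some compounds called inactive have numbers as strong as hits; positive values seem to mean higher polarization but the record does not say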
# Vif TR-FRET – HIV-1 Vif–A3G interaction blockers – biochemical, TR-FRET, GST-Vif 1-94, biotin-A3G peptide, dose response retest, primary screen (AID 1117319). TR-FRET GST-Vif / biotin-A3G peptide binding; higher % means a stronger effect; test concentration not given here; strong numbers were not always called active. actives 0.57% (n = 260,000). inhibition, %; hits with a dose series show IC50 in µM;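 active = above the screen mean plus three standard deviations and confirmed in dose response; inconclusive = results disagree or hit not tested in dose response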;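 also: Vif residues 1-94 fused to GST binding biotinylated APOBEC3G peptide 110-148; 0% = full assay without inhibitor and 100% = GST in place of GST-Vif; retest series ran down from 100 µM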
# E coli growth – E. coli growth inhibition; Escherichia coli growth, OD600, 23 h; hits give low values; OD600 absorbance (test concentration not listed); actives 0.21% (n = 330,000);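 active = OD600 absorbance below the run mean of sample wells minus 3.6 SD, in any replicate, cut at about 0.56 in these data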;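 also: stock transfer was 300 nL into about 60 µL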
# * hit, by the source's call; ? = inconclusive; nt = no result given.
SMILES,A1 inh,LANA-H2B inh,UCH37 DUB inh,B2AR ag,HNF4A DNA FP,Vif TR-FRET,E coli growth
O=C(O)c1ccc(N/N=C/c2ccc(F)c(F)c2)cc1,-8.6,1.0,nt,1,-1.0,nt,nt
O=C(CN1CCN(c2cccc(Cl)c2)CC1)NC1CCCc2ccccc21 (stereo unspecified),0.4,20*,-0.6,5,-2.0,nt,0.6
c1coc(CN2CN=C(Nc3nc4ccccc4s3)NC2)c1,-0.3,4.0,0.6,8,-0.9,0%,0.71
CCN(CC)CCn1c(NCc2ccco2)nc2ccccc21,-1.0,2.7,1.4,-6,1.7,10%,0.67
Cc1ccc(CNC(=O)C(Cc2ccccc2)NS(=O)(=O)c2ccc(Br)s2)cc1 (stereo unspecified),-0.1,-6.2,0.1,3,7.0,0%,0.63
Cc1cc(C)c(C)c(S(=O)(=O)N2CCC(C(=O)NCC(c3ccccc3)N(C)C)CC2)c1C (stereo unspecified),-0.3,-7.7,1.7,0,3.7,2%,0.66
O=C(NC12CC3CC(CC(C3)C1)C2)c1cc([N+](=O)[O-])ccc1N1CCOCC1,1.6,3.3,4.4,-5,7.2,-10%,0.69
CCOC(=O)c1ccc(NC(=O)CNC(=O)c2ccco2)cc1,0.1,-7.4,5.0,1,2.9,nt,0.57
CCOC(=O)c1cc(NC(=O)c2ccc(Cl)cc2)c(=O)n2c1oc1ccc(Cl)cc12,0.2,-1.7,-119,-10,5.7,-2%,0.72
Cc1cc2cc(C)c3nnc(SCC(=O)N4CCCc5ccccc54)n3c2cc1C,0.2,5.4,0.6,nt,nt,1%,0.66
Cc1cccc(N=Nc2ccc(O)c3ncccc23)c1,-4.8,3.0,8.5,9,-2.1,15%,0.72
CS(=O)(=O)N1CCN(C(=O)c2ccc(Cl)s2)CC1,2.7,1.9,-2.0,-3,4.3,-1%,0.67
O=C1Nc2ccccc2C1=Nc1ccc2[nH]c3ccccc3c2c1,nt,nt,nt,14,5.1,14%,nt
COCCNC(=O)C(=O)NCC1OCCN1S(=O)(=O)c1ccc(C)cc1 (stereo unspecified),0.1,2.9,2.1,-1,-4.1,nt,0.7
CCC(CC)c1nnc(NC(=O)CC(C)c2ccccc2)s1 (stereo unspecified),1.2,4.7,1.9,-11,-1.4,-14%,0.74
CC(C)(C)c1ccc(NC(=O)CNC2CCCc3ccccc32)cc1 (stereo unspecified),-0.3,8.5,0.8,5,3.2,-8%,0.6
CC(=O)c1ccc(NC(=O)CCCN2C(=O)/C(=C/C(C)=C/c3ccccc3)SC2=S)cc1,-0.5,-1.2,11,-12,10,5%,0.7
CCOC(=O)C1=C(C)N=C2SC=C(C)N2C1c1ccc(OC)cc1 (stereo unspecified),0.5,2.5,-1.0,-4,-3.8,31%,0.72
COc1ccc(NC(=O)C2CCCN(S(=O)(=O)c3cccc4nonc34)C2)cc1 (stereo unspecified),1.4,-0.8,0.6,5,1.1,-5%,0.66
CCOc1ccccc1N1CCN(C(=S)Nc2ccc(S(N)(=O)=O)cc2)CC1,0.5,-1.8,3.0,2,0.6,29%,0.65
O=C(COC(=O)c1cc(=O)[nH]c2ccccc12)Nc1ccccc1F,-1.4,4.9,-12,-6,5.1,-12%,0.71
COc1ccc(CNC(=O)CCN2C(=O)c3ccncc3C2=O)cc1OC,0.0,-1.7,0.9,0,-1.2,6%,0.69
CCOc1ccccc1N(CC)C(=O)c1nn(C)c2c1CSc1ccccc1-2,0.6,-1.5,nt,-16,2.4,nt,nt
CC(C)=CCN1CCN(Cc2ccc(C#CC(C)(C)O)cc2)CC1CCO (stereo unspecified),0.1,6.1,0.0,4,4.5,23%,0.67
COc1ccc(SCCc2ccncc2)cc1,-0.6,-5.2,1.9,3,-3.0,11%,0.67
N#Cc1nc(-c2ccccc2Cl)oc1N1CCCCC1,-0.9,-2.8,-71,1,6.2,-2%,0.7
CC(=O)OC(COC1C[C@@H]2CC[C@@]1(C)C2(C)C)C[N+]1(C)CCCCC1 (stereo partly specified),?,-2.9,-0.1,2,0.1,1%,0.61
Cc1cccc(NC(=S)Nc2cccc(C)n2)n1,0.4,2.3,0.3,1,2.3,29%,0.65
CC1CCCC(NC(=O)COC(=O)c2n[nH]c3ccccc23)C1C (stereo unspecified),1.5,-0.1,-1.1,-6,0.6,nt,0.63
CCOC(=O)N1CCN(C(=O)c2ccc(N(C)S(=O)(=O)c3ccc(C)cc3)cc2)CC1,0.0,-4.5,1.9,6,2.1,nt,0.69

# Sorted by value in HNF4A DNA FP (smallest number first): some entries from above.
SMILES | HNF4A DNA FP
O=C(O)c1ccc(N/N=C/c2ccc(F)c(F)c2)cc1 | -1.0
CC(=O)OC(COC1C[C@@H]2CC[C@@]1(C)C2(C)C)C[N+]1(C)CCCCC1 (stereo partly specified) | 0.1
CS(=O)(=O)N1CCN(C(=O)c2ccc(Cl)s2)CC1 | 4.3
N#Cc1nc(-c2ccccc2Cl)oc1N1CCCCC1 | 6.2

# Next structures follow:
SMILES,A1 inh,LANA-H2B inh,UCH37 DUB inh,B2AR ag,HNF4A DNA FP,Vif TR-FRET,E coli growth
CCC(Sc1nc(C)cc(C)n1)C(=O)NC1=NN=C(c2ccc(C)cc2)CS1 (stereo unspecified),-0.5,-4.0,6.1,4,11,12%,0.73
CS(=O)(=O)N(CC(=O)N1CCN(c2cccc(Cl)c2)CC1)c1cccc(F)c1,-0.9,-3.0,2.6,6,2.1,5%,0.74
CC(NC(=O)COC(=O)C1CC2CCCC(C1)C2=O)c1ccccc1 (stereo unspecified),0.9,3.5,2.6,-7,-5.1,nt,0.66
COc1cc(N(C(=O)Cc2cccs2)C(C(=O)NC2CCCCC2)c2cccc(OC)c2OC)ccc1-n1cnnn1 (stereo unspecified),-2.4,-6.5,5.9,-2,1.2,nt,0.72
C[C@@]12C(=O)N(Cc3ccco3)CC(=O)N1[C@H]1c3ccccc3OC[C@@H]1[C@@H]2c1ccccc1,0.6,-5.3,1.2,-7,-6.6,nt,nt
CCOC(=O)c1c(C)[nH]c2cc(Br)c(O)cc12,0.3,-2.6,6.2,6,3.8,8%,0.68
OCC[C@@H]1C[C@@H](O)[C@H](O)[C@]2(CCCO2)O1,0.2,-0.9,5.4,0,-4.2,nt,nt
COc1ccccc1NS(=O)(=O)c1cc(NC(=O)CN2C(=O)NC3(CCCC3)C2=O)ccc1C,0.4,0.8,0.5,5,0.9,nt,0.67
Cc1cc(C)c(C)c(S(=O)(=O)N2CCN(C(=O)c3ccccc3OCc3c(C)noc3C)CC2)c1C,-0.4,1.3,4.1,8,4.0,-5%,0.7
COc1ccccc1CNC(=O)C(NC(=O)c1ccccc1)C(C)C (stereo unspecified),0.5,-2.5,6.1,-3,-2.8,?,0.67
CN(C)S(=O)(=O)c1cccc(NC(=O)COC(=O)C2CCN(C(=O)c3ccc(F)cc3)CC2)c1,-0.3,0.0,4.9,-8,-4.2,-10%,0.72
O=Cc1c[nH]c2ccc(C(=O)c3ccccc3)cc12,0.4,-1.7,0.8,-11,1.9,nt,0.61
CC(=O)N1CCc2cc(S(=O)(=O)NCCC(=O)Nc3cccc(C)c3C)ccc21,-0.5,1.5,-2.9,-6,1.7,>100µM*,0.76
COCCCNC(=O)c1cc(C(=O)Cc2ccccc2)c[nH]1,0.0,-7.4,-0.6,3,1.8,1%,0.67
COc1cccc(-c2onc3ccc(C(=O)/C=C/N(C)C)cc23)c1,1.2,2.2,8.7,10,-2.6,nt,0.64
CCCn1c(SCC(=O)c2cc(C)n(C3CC3)c2C)n[nH]c1=O,0.0,0.9,2.3,-8,-4.0,nt,0.67
CCc1cc(C(=O)NNC(=O)CCN2CCN(c3ccccc3)CC2)sc1C,-0.5,1.2,-0.6,-3,-0.2,1%,0.71
C[N+]1(CCCOC(=O)C2(c3ccccc3)CCCC2)CCOCC1,-0.8,-4.5,5.0,-61,1.5,nt,0.67
COc1ccccc1N1C(=O)c2cccc3c(N(C)CCO)ccc(c23)C1=O,0.4,15,nt,12,-47,3%,nt
O=C(Nc1ccccc1Cl)c1cccc(NC(=O)C2C3CC4OC(=O)C2C4C3)c1 (stereo unspecified),-0.4,1.2,4.0,1,3.8,-6%,0.7
O=C(Nc1ccccc1)Nc1nncs1,1.4,0.1,0.7,1,1.2,6%,0.75
Cc1cccnc1NC(=S)NC(=O)/C=C/c1ccccc1,0.3,-3.0,2.4,-3,0.7,5%,0.68
Cc1ccc(N(CC(=O)NCc2ccc(F)cc2)C(=O)c2csnn2)c(C)c1,-0.2,-4.3,1.6,-4,-2.6,?,0.65
Cn1cccc1CC(=O)N/N=C/C=C/c1ccccc1,0.1,2.8,nt,-1,9.0,3%,nt
Cc1c(C)c(C)c2[nH]c(-c3ccc4c(c3)OCO4)nc2c1C,-0.5,16,-42,8,-3.3,nt,0.62
Cc1ccc(CN2CCCCC2C(=O)Nc2ccc(Oc3cccnc3)cc2)o1 (stereo unspecified),0.5,-0.2,-0.1,4,4.2,5%,0.7
C=CCn1c(COc2cccc(C)c2)nnc1SCC(=O)c1c[nH]c2c(CC)cccc12,0.6,-2.3,5.0,5,2.7,nt,0.71
CC(C)(C)OC(=O)Cn1c(=O)cnc2ccccc21,0.0,12,-12,2,0.7,-1%,0.74
COC(=O)Cn1cnc(=O)c(C#N)c1/C=C/N(C)C,nt,nt,2.8,1,-0.9,-9%,0.75
CCC(C(=O)O)n1cnc2scc(-c3ccc(C)c(C)c3)c2c1=O (stereo unspecified),0.7,0.4,4.9,11,2.0,-4%,0.7
O=C(Nc1ccccc1)N1N=C(c2ccc(F)cc2)CC1c1ccc(F)cc1 (stereo unspecified),0.7,-2.1,3.0,-2,-2.6,nt,0.66
Cc1ccc(S(=O)(=O)NCC(C)n2cncn2)cc1 (stereo unspecified),0.2,-0.7,-1.4,1,-0.1,nt,0.69
Cc1nn(C(C)(C)C)c(OC(=O)C2CCCC2)c1S(=O)(=O)c1ccccc1,nt,nt,nt,5,0.0,?,0.7
CC1=NN(c2ccccc2)C(=O)/C1=C/c1c(O)n(-c2ccc(F)c(Cl)c2)[nH]c1=O,-2.9,-3.9,9.2,nt,nt,nt,0.61
CCN(CC(=O)Nc1ccc(NC(C)=O)cc1)C(=O)/C=C/c1ccc2c(c1)OCO2,1.0,-1.5,-29,-3,3.2,-2%,0.69
O=C(c1ccccc1F)N(Cc1ccc(F)cc1)C1CCS(=O)(=O)C1 (stereo unspecified),-0.1,-2.4,-2.1,-1,-0.3,4%,0.8
O=C(C1CC1)N1CCc2cc(Br)cc(S(=O)(=O)N3CCN(c4ccccn4)CC3)c21,-1.8,2.7,2.5,-8,0.0,1%,0.72
CS(=O)(=O)Nc1ccc(C2=NN(C(=O)c3cccc(F)c3)C(c3cccs3)C2)cc1 (stereo unspecified),5.4*,0.9,0.2,2,1.5,4%,0.66
CCN1CCN(C(=O)/C(=C/c2ccco2)NC(=O)c2ccccc2)CC1,0.6,2.5,4.3,-5,-2.1,nt,0.65
C/C=C/Cn1c(SCCCc2ccccc2)nc2c1c(=O)[nH]c(=O)n2C,-0.9,3.5,1.6,22,0.4,0%,0.77
COc1ccc(C(=O)NC2CCN(CC(=O)Nc3c(C)cccc3C)CC2)cc1OC,0.4,-0.9,1.6,0,2.0,nt,0.62
Cc1ccc(C)c(-n2c(-c3ccc(Br)cc3)csc2=NC(=O)c2ccccc2F)c1,-0.1,3.2,-62,8,-0.8,-30%,0.72
